UUG fidelity – yeast start codon fidelity modulation; 350,000 tested, 0.13% active; S. cerevisiae UUG-firefly luciferase reporter, luminescence/redox ratio; activity score, % at 18.7 µM;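 active = replicate mean at a twofold rise or more, about +100% in these data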;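 note: firefly luciferase made from a UUG start codon reports start codon fidelity; reporter light over untreated wells divided by growth signal over untreated wells; some hits fall short of that in this replicate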
MT1-MMP act inh – inhibitors of human MT1-MMP activation; P50281; HT1080 RFP-PRO-GFP cells, GFP/RFP ratio fluorescence, overnight; percent of plate control window, DMSO zero; GFP/RFP ratio change, % at 20 µM; 360,000 tested, 0.061% active;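 active = GFP/RFP ratio change of at least 30% with cell ATP level not reduced by more than half and red fluorescence within 50% of control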; note: strong numbers were not always called active
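Assay system: RFP-PRO-GFP reporter HT1080 cells; read-out basis: GFP/RFP fluorescence ratio; benchmarks: DMSO wells and RFP-L50D-GFP cells; doses: 20 µM single dose, 1% DMSO; schedule: overnight cell settling, then overnight compound exposure, 37 °C, 5% CO2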
Rce1 inhib – yeast Ras-converting enzyme inhibition | yeast membranes, quenched prenylated peptide cleavage fluorescence | calls only | 290,000 tested, 0.27% active | AID 2563;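 active = fall in fluorescence gain of 50% or more versus controls, with final raw signal at or below 3038400; inconclusive = same 50% fall but final raw signal above 3038400; inactive = fall in fluorescence gain under 50%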;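 note: plate controls were neutral control wells for no effect and wells lacking membranes for full effect; tested at 10 µM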
Target sequence (Q03530 whole entry, looked up): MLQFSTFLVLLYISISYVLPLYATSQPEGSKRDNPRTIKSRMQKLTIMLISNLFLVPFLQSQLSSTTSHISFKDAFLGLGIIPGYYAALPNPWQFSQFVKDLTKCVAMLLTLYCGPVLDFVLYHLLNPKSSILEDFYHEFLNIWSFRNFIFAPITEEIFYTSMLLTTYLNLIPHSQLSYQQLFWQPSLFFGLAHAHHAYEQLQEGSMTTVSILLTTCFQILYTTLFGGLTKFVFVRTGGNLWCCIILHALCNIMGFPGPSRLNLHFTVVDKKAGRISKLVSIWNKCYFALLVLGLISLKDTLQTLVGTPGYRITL
PABP polyA inh – PABP-poly(A) binding inhibition. P11940. PABP-poly(A) RNA binding, fluorescence polarization. inhibition, % at 35 µM. 290,000 tested, 1% active. AID 2014;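 active = 50% or more with normal probe brightness, or confirmed in later tests; inconclusive = above 50% with abnormal brightness, or retests that disagree; inactive = below 50% or failed in later tests; about a fifth of its hits are not listed in these tables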;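 note: calls also rest on retests at 20 µM and on dose response follow-up; controls were probe without protein and protein plus probe with vehicle; some compounds called inactive have numbers as strong as hits; many hits fall short of the cut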
eIF4H FP inh – inhibitors of RNA binding by human eIF4H | inhibition, % at 35 µM | 290,000 tested, 0.94% active | Q15056 | eIF4H fluorescence polarization binding assay;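 active = 50% or more with normal probe brightness, or confirmed in later tests; inconclusive = above 50% with abnormal brightness, or retests that disagree; inactive = below 50% or failed in later tests; about a fifth of its hits are not listed in these tables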;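 note: calls also rest on retests at 20 µM and on dose response follow-up; 0% = protein and probe with vehicle and 100% = probe without protein; strong numbers were not always called active; many hits fall short of the cut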
HIV Env fusion – blocks HIV Env-driven cell-cell fusion | 360,000 tested, 1.1% active | inhibition, % at 12.3 µM | HeLa-JRFL Env/CEM21 cell fusion, luciferase;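 active = mean replicate inhibition score of at least 50 and every replicate individually at or above 50; inconclusive = only one of the two criteria met; inactive = mean below 50 and not all replicates reaching 50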;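 note: 0% = plate neutral controls and 100% = maraviroc near 300 nM; one replicate is shown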
CSC inhib – blocks cancer stem cells | inhibition, % at 7.5 µM | 300,000 tested, 1.1% active | cancer stem cell-like cells viability, luminescence;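 active = mean at 75% or more and at least half the replicates too; inconclusive = mean and replicates disagree; tested in HMLE shEcad cells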;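 note: 0% = median of negative and 100% = median of positive control wells; the first replicate is given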
MT1-MMP act inh RFP – second read-out of MT1-MMP act inh, no call of its own (marks repeat the call); RFP signal change, %; measured here: RFP expression control read;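 0 = vehicle wells; hits needed this value within 50% of zero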
Numbers without * were called inactive; i = inactive; u = inconclusive; x = no result given; + = active, no number; & = joins results of further samples. This is a subset; rates above refer to the full screens.

Values run as follows: UUG fidelity, MT1-MMP act inh, MT1-MMP act inh RFP, Rce1 inhib, PABP polyA inh, eIF4H FP inh, HIV Env fusion, CSC inhib
Cc1cc(S(=O)(=O)N2CCN(c3c(C)cccc3C)CC2)ccc1F
  -15, -5, -3, i, 3, 30, x, -6
NC(=O)c1nsc(C(=O)N(c2ccccc2F)C(C(=O)NCc2ccccc2)c2ccc(O)cc2)c1N (configuration not stated)
  -4, -18, -4, +, 2, -8, 22, 18
O=C(Nc1cc(Sc2ccccn2)cc([N+](=O)[O-])c1)c1ccc(Cl)cc1
  x, -9, -32, i, 0, -3, x, 46
Cc1ccc(NC(=O)c2ccccc2-c2ccccc2C(=O)O)cc1C
  x, 3, 8, i, -1, 6, 16, -10
COc1cc(C(=O)Nc2sc3c(c2C(=O)O)CCC3)cc(OC)c1OC
  -9, 6, 2, i, 1, 2, 4, -10
CC1Nc2ncnc(N3CCN(c4ccccc4)CC3)c2N(Cc2ccccc2)C1=O (configuration not stated)
  -9, 3, -3, i, x, x, 4, -8
CC1(N2CCOCC2)CC2(O)C(=[N+]1[O-])CCc1nonc12 (configuration not stated)
  x, x, x, i, 30, 17, x, -6
COc1ccc(-n2nc3c(c2NC(=O)COc2cccc(OC)c2)CS(=O)(=O)C3)cc1
  -7, -1, 5, i, 12, 32, x, -8
CCOC(=O)N1CCN(CC(=O)N2CCC(C(N)=O)CC2)CC1
  -7, 1, 2, i, -6, 1, -10, -2
Cc1ccc(-n2nnnc2SCC(=O)NNC(=O)c2ccco2)c(C)c1
  -6, 4, 1, i, 0, 6, x, 1
CCOc1cc(NC(=O)C2CCCCC2)c(OCC)cc1NC(=O)c1ccccn1
  -1, 0, -3, i, 6, -1, -1, 2
Fc1ccc(C2N(c3ccccc3)C(=S)N3CCCN23)cc1 (configuration not stated)
  -9, -1, 0, i, -6, 29, -25, x
Cc1ccc(C)c(-n2nnnc2Sc2nnnn2-c2ccccc2)c1
  -4, -4, -6, i, x, x, u, 68
COC(=O)CSc1nnc(-c2ccccc2OC)o1
  -6, -3, 0, i, -11, -10, -64, -6
COc1cccc(CC(=O)OCC(=O)N(C)CC(=O)Nc2ccccc2Cl)c1
  -4, -1, 1, x, x, x, -5, -6
CN(C(=O)CCNC(=O)Cn1cnc2ccccc2c1=O)c1ccc(Br)cc1
  -3, -2, 2, i, 5, -9, -53, -8
COc1ccc(C(NC(=O)C(C)C)c2c(O)ccc3ccccc23)cc1OC (configuration not stated)
  7, -4, 0, i, -2, -9, -159, -14
Cc1c(NC(=O)CSc2ccccc2Cl)c(=O)n(-c2ccccc2)n1C
  -9, 1, 6, i, 37, 2, -3, -3
COC(=O)c1ccc(NC(=O)COC(=O)C2CC(=O)N(Cc3ccccc3)C2)cc1 (configuration not stated)
  -13, 2, 3, i, 6, -2, -7, -12
Cc1cc(=O)oc(C)c1C(=O)NCc1c(F)cc(F)cc1F
  -18, -1, 2, i, 6, 1, -6, -7
O=C(N/C(=C\c1cccnc1)C(=O)N1CCOCC1)c1cccc(Br)c1
  -27, 0, 2, i, -5, -2, -27, -13
Cc1nn(C/C(C#N)=N\O)c(C)[n+]1N
  -14, -6, -2, i, 2, 3, -4, -8
Cn1c(CN2CCN(CCO)CC2)c(C#N)c2ccccc21
  x, 3, 4, i, 1, 2, -36, -5
Cc1cccc(Cc2nc3ccccc3[nH]2)c1
  -22, 2, -2, x, x, x, -4, x
COC(=O)[C@@H](NS(=O)(=O)c1cc(Br)ccc1Br)C(C)C
  11, 6, 3, x, x, x, 0, x
CCCc1nc2oc3c(NCCCN(C)C)ncnc3c2c2c1CCCC2
  21, 2, -7, i, 19, 5, 19, 54
CCCCOc1ccc(CSC2=NCCN2)cc1[N+](=O)[O-]
  -15, 1, -12, i, -2, -17, -1, 41
Cc1ccc(C)c(S(=O)(=O)N(C(=O)c2ccncc2)c2ccc(OC(=O)c3ccncc3)cc2)c1
  x, 1, 0, i, -4, -6, 22, -9
Cn1c(=O)oc2cc(S(=O)(=O)NCC3CCCO3)ccc21 (configuration not stated)
  -12, -37, 8, i, x, x, -66, -7
CC(CNC(=O)CC(C)(C)C)NC(=O)CC(C)(C)C (configuration not stated)
  x, 0, -3, i, 4, -16, 1, -9
CCOc1ccc(-c2nnn(CC(=O)c3ccc4c(c3)OCCO4)n2)cc1OCC
  -30, 0, -1, i, -1, 6, x, -4
COc1ccc([N+](=O)[O-])cc1C(=O)NCCOc1ccc(Cl)cc1
  3, -1, -4, i, -4, -4, 3, 0
O=C(CSc1nnc(Cc2ccccc2)n1Cc1ccco1)NC12CC3CC(CC(C3)C1)C2
  -1, -14, -9, i, -6, -7, 58*, 14
CCOc1ccccc1C1C(C(=O)OC)=CN(C)C=C1C(=O)OC
  2, 6, 2, i, 4, 0, -121, 7
Cc1ccc(CSC2=NCCN2C(=O)c2ccco2)cc1
  -21, -1, -1, i, -8, -8, -23, -9
CC(C)C[C@H](NC(=O)C1CC(=O)N(c2ccc3c(c2)OCO3)C1)C(=O)NC1CCCCC1 (some centres not stated)
  -16, -1, 3, i, 1, 7, -1, -7
O=C(COC(=O)c1cccc(S(=O)(=O)N2CCOCC2)c1)Nc1nc(-c2ccccc2Cl)cs1
  x, 1, -1, x, 1, -4, -66, -15
Cc1ccc(NS(=O)(=O)c2cccc(C(=O)NCc3ccccn3)c2)cc1
  -11, 6, -5, i, x, x, -4, -12
C[C@@H]1CN([C@@H](C)CO)S(=O)(=O)c2ccc(-c3ccc(C#N)cc3)cc2O[C@@H]1CN(C)Cc1ccccn1
  0&-11&-7, 2, 1, x, x, x, -8, x
Cc1ccc(C)n1-c1ccccc1N
  x, x, x, x, 6, 34, x, -6
CN(CC(=O)Nc1cccc(F)c1)C(=O)/C=C/c1cn(Cc2ccccc2)nc1-c1cccnc1
  -3, -7, -1, i, x, x, 1, -21
Fc1cccc(Cc2c(-c3ccc(Cl)cc3)nc3ccc(Cl)cn23)c1
  0, -12, -5, x, x, x, -150, x
C=CCc1ccc(OCCOCCN(C)C)c(OC)c1
  -10, -3, 2, i, 10, 12, -55, 6
Cc1cc2ccccc2n2c(SCC(=O)NCc3cccs3)nnc12
  -5, 1, 5, i, 6, -7, -35, 12
COc1ccc(NC(=O)Cn2cnc3c(cnn3C(C)(C)C)c2=O)cc1OC
  -8, 5, 7, i, 8, 12, 3, 8
COc1ccc(C2=NN(C(=O)c3cccs3)C(O)(C(F)(F)F)C2)cc1 (configuration not stated)
  x, 6, -3, i, 1, -3, 12, 5
CC(=O)Nc1ccc(S(=O)(=O)Oc2ccc(C(=S)N3CCC(O)CC3)cc2)cc1
  x, -14, -14, i, -2, 2, u, -8
COC(=O)/C(=C1/Oc2cc3c(cc2S1)OCO3)C(F)(F)F
  -9, -1, -4, i, 2, 7, x, -1
COCCNC(=O)c1c(CSc2ccc(F)cc2)noc1C(=O)NCc1ccccc1
  -3, 2, -2, i, 1, 3, -12, 12
CCc1nnc(NC(=O)CSc2nnc(-c3ccccc3OC)n2-c2ccc(C)cc2)s1
  -16, 0, 1, i, 1, 0, x, -15
O=C(CSc1nccc(=O)[nH]1)N1CCCc2ccccc21
  -13, -5, 2, i, -2, -6, 8, -4
CCCCC(=O)Nc1cccc(NC(=O)c2cccc(Br)c2)c1
  x, -2, -2, i, -5, 7, 20, 5
CC1CCCCC1NC(=O)CCCCn1c(=O)[nH]c2ccsc2c1=O (configuration not stated)
  -6, -3, -4, i, 20, -4, -6, -4
CC1CCCC(C)N1CCNC(=O)CCc1nnc2n(Cc3ccccc3)c(=O)c3ccccc3n12 (configuration not stated)
  -6, -4, 6, i, 6, 6, 1, 2
O=C(COC(=O)Cc1ccc(Br)cc1)NC12CC3CC(CC(C3)C1)C2
  -14, 7, 4, x, -3, 2, x, x
O=C(Nc1ccccc1O)c1ccc2c(c1)C(=O)N(N1C(=O)c3ccccc3C1=O)C2=O
  -7, 2, 7, i, 4, 2, -7, -8
O=C1Nc2c(c(=O)[nH]c(=O)n2Cc2ccccc2)C1(NS(=O)(=O)c1ccccc1)C(F)(F)F (configuration not stated)
  x, 0, 0, i, 5, -1, -17, 6
COc1cc(/C=C/c2[nH]c(=O)[nH]c(=O)c2[N+](=O)[O-])cc(OC)c1O
  18, 4, -2, i, 1, 7, -34, x
Cc1ccc(NC(=S)Nc2ccc3[nH]c(=O)[nH]c3c2)cc1C
  -26, 0, 3, i, -4, 6, -3, -8
O=C(C1CCC(=O)N(C2CC2)C1)N1CCN(c2cccc(Cl)c2)CC1 (configuration not stated)
  -7, 2, 0, i, -7, 1, 12, -10

(continued)
Values run as follows: UUG fidelity, MT1-MMP act inh, MT1-MMP act inh RFP, Rce1 inhib, PABP polyA inh, eIF4H FP inh, HIV Env fusion, CSC inhib
CCOC(=O)c1c(C)[nH]c(C(=O)OCC(=O)c2ccccc2)c1C
  x, -1, -1, i, x, x, -181, 9
CC(C(=O)Nc1ccc(Br)cc1)N(C)CC(=O)NCc1ccco1 (configuration not stated)
  -20, 1, -4, x, x, x, x, -15
O=C(COc1ccc2c(c1)CCC2)N1CCN(c2ccc(F)cc2)CC1
  -11, -2, 1, i, 5, 3, -1, 3
O=c1[nH]c2cc(Cl)c(Br)cc2o1
  -18, 1, 0, x, x, x, 5, x
O=C(CSc1nnc(-c2ccncc2)n1Cc1ccco1)Nc1ccccc1Cl
  x, 0, -2, i, -2, -1, -12, 3
COC(=O)c1ccc(NC(=O)c2ccc(OC(C)=O)c(OC)c2)cc1
  -14, 4, -3, i, -6, -4, -44, -4
Cc1cccc(NC(=O)c2ccc(S(=O)(=O)NCc3ccco3)cc2)n1
  -23, -3, -19, x, x, x, x, -18
CCOC(=O)C1=CN(Cc2ccco2)S(=O)(=O)NC1CC (configuration not stated)
  -11, -4, 5, x, x, x, -30, x
O=[N+]([O-])c1ccc(N2CCN(S(=O)(=O)c3ccccc3)CC2)cc1NCCN1CCOCC1
  15, -7, -12, i, 6, 4, 9, -2
CCC(NC(=O)Nc1cc(C)on1)(C(F)(F)F)C(F)(F)F
  x, -1, 2, i, -2, -2, 8, -2
C[C@@H](C(=O)OCC(=O)NCCc1ccc(S(N)(=O)=O)cc1)N1C(=O)C2CCCCC2C1=O (some centres not stated)
  -10, -3, 0, i, 2, 6, 19, 8
COc1ccc(-c2nn(-c3ccccc3)cc2/C=C(\CC(=O)O)c2nc3ccccc3s2)cc1OC
  -17, 4, 2, i, 15, 3, 2, 18
Cc1ccc([N+](=O)[O-])cc1NC(=O)C(C)Sc1nnc(C)n1CC1CCCO1 (configuration not stated)
  -9, 1, 5, x, 5, -8, 1, -10
CCCc1c(C)[nH]c2nc3ccccc3n2c1=O
  -9, -1, -3, i, -4, -8, -4, -4
O=C1Nc2ccccc2C1=O
  -9, 0, 4, i, x, x, x, 3
NS(=O)(=O)c1cccc(NC(=O)CSc2ncc(C(F)(F)F)cc2Cl)c1
  x, 2, -2, i, 33, 12, 0, 16
Cc1ncc(C23CC4CC(CC(C4)C2)C3)[nH]1
  -17, 4, -3, i, -12, 0, x, -13
CCOC(=O)N1CCN(C(=O)c2cn(-c3ccc(C)c(C)c3)c(=O)c3ccccc23)CC1
  2, 5, 4, x, -9, -10, x, x
O=C(N/N=C/c1ccc(N2CCCCC2)o1)C(O)(c1ccccc1)c1ccccc1
  x, x, x, i, -16, 5, x, -2
CC1(C)NC(=O)N(CCOc2cccc(Cl)c2Cl)C1=O
  -12, 0, 2, i, -4, -7, -49, 12
O=C(CCC1CCCN(C(=O)c2cccc(F)c2)C1)N1CCN(c2ccccn2)CC1 (configuration not stated)
  -6, -2, -5, i, 2, 0, 6, -3

Compound activity: PubChem BioAssay, several laboratories
